From PubChem BioAssay
UHRF1 MBD2 ctr = UHRF1 methyl-DNA binding inhibition; AID 687016; UHRF1 binding to methylated oligo, TR-FRET; actives 0.75% (n = 370,000); inhibition, % at 4.4 µM; Q96T88; in the data active means inhibition above about 21%;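 further: UHRF1 SRA domain binding a hemimethylated CpG hairpin DNA probe; 0% = median of test compound wells and 100% = reference inhibitor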
mABHD4 FP = inhibitors of mouse ABHD4 | inhibition, % at 8.92 µM | AID 720543 | Q8VD66 | actives 0.54% (n = 370,000) | purified mABHD4, FP-Rh probe fluorescence polarization;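 active means inhibition exceeding the mean over every tested compound plus 3 SD, cut at about 30% in these data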;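 further: 0% = plate median of compound wells and 100% = S159A mutant with DMSO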
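Assay system: wild-type mouse ABHD4 protein; compound: single nominal dose of 8.92 µM, 0.89% DMSO final; schedule: 45 min + 60 min at 25 °C; measured by: FP readout, ex 525 nm / em 598 nm; evaluation: % inhibition of FP-Rh probe binding versus controls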
HTRA1 inh = HTRA1 (human) protease inhibition. Q92743. recombinant HTRA1, FP-rhodamine activity-based probe, fluorescence polarization. inhibition, % at 5.96 µM. actives 0.5% (n = 340,000). AID 504803; in the data active means inhibition above about 36%;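 further: 0% = enzyme with DMSO and 100% = wells lacking enzyme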
SIAE primary = blocks human sialic acid acetylesterase; AID 1053197; actives 0.69% (n = 370,000); inhibition, % at 9.66 µM; SIAE FP-Rh probe binding, fluorescence polarization; Q9HAT2;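 active means inhibition above a cutoff: mean of compounds within the control limits plus 3 SD of those, cut at about 17% in these data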;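 further: 0% = plate median of compound wells and 100% = probe without SIAE protein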
Target sequence (Q9HAT2 whole entry, looked up): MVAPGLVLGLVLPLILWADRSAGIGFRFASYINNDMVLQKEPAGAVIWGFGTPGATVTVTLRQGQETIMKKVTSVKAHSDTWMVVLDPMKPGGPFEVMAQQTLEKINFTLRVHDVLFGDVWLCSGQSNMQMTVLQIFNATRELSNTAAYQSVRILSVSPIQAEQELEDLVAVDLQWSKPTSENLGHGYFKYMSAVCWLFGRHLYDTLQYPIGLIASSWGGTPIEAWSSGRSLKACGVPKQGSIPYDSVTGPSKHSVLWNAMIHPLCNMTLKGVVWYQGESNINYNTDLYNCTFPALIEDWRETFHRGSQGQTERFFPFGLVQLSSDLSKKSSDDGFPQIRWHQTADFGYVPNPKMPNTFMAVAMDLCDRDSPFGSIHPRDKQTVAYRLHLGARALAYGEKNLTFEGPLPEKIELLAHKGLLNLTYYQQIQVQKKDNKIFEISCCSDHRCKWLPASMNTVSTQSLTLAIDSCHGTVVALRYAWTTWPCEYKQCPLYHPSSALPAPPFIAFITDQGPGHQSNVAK
MBD2 DNA inh = blocks human MBD2 binding to methylated DNA; TR-FRET, MBD2 binding to methylated oligonucleotide; inhibition, % at 4.4 µM; actives 0.31% (n = 370,000); in the data active means inhibition above about 13%
The depositor's hits bear a star; x = not tested or not shown; & = joins results of further samples. These rows are one share of the data, so the mix of outcomes need not match the whole.

SMILES	UHRF1 MBD2 ctr	mABHD4 FP	HTRA1 inh	SIAE primary	MBD2 DNA inh
NS(=O)(=O)c1ccc(NC(=O)Nc2ccccc2)cc1	-1.7	-2.9	-4.5	-8.2	3.5
COc1ccc(C2CC(c3ccccc3)=NN2C(=O)CCCC(=O)O)cc1 (configuration not stated)	-2.1	-2.2	-5.5	-3.0	-0.4
O=C1NC[C@H](c2ccccc2)OC(=O)[C@H](Cc2ccc(F)cc2)CC/C=C/C[C@H]1CC(=O)N(CCO)Cc1ccccc1	1.9	-20.7	-14.4	-1.6	-3.9
CC(C)(C)c1cc(NC(=O)COC(=O)c2ccccc2O)n(-c2ccccc2)n1	-1.8	-8.7	-7.8	4.7	-1.4
O=C(O)c1cc(NS(=O)(=O)c2cccc3ccccc23)ccc1O	-0.3	-11.4	-1.1	-5.4	0.5
O=C(c1ccc(NS(=O)(=O)c2ccccc2)cc1)N1CCN(c2ccccc2)CC1	1.6	-6.0	1.6	0.0	1.3
CC(=O)Nc1cccc(-c2nnc(-c3ccc(C)cc3)o2)c1	2.0	-2.2	8.2	-7.1	-1.2
O=C(NCCN1CCC(n2c(=O)[nH]c3ccccc32)CC1)c1ccc2ccccc2c1	7.9	17.4	x	-8.2	-0.8
CCOc1ccc2nc(S(N)(=O)=O)sc2c1	-0.8	-7.5	4.3	1.1	1.4
NS(=O)(=O)c1ccc(NC(=O)Nc2ccc(C(F)(F)F)cc2)cc1	3.0	-68.9	x	-98.4	-3.0
CCc1nc(N)nc(N)c1-c1ccc(NCCN)c([N+](=O)[O-])c1	-17.4	5.2	-2.6	0.9	-16.1
Cc1cnc(NC(=O)C2=C(O)c3ccccc3S(=O)(=O)N2C)s1	2.2&-0.2&2.3&-2.6	-3.9&5.8&-7.2&-3.0	0.6&-0.2&0.4&5.4	-2.2&3.7&1.9&-2.6	1.1&-3.8&2.2&-1.9

As entered above:
For UHRF1 MBD2 ctr, NS(=O)(=O)c1ccc(NC(=O)Nc2ccc(C(F)(F)F)cc2)cc1 is entered as 3.0
For SIAE primary, O=C1NC[C@H](c2ccccc2)OC(=O)[C@H](Cc2ccc(F)cc2)CC/C=C/C[C@H]1CC(=O)N(CCO)Cc1ccccc1 is entered as -1.6

(further entries)
SMILES	UHRF1 MBD2 ctr	mABHD4 FP	HTRA1 inh	SIAE primary	MBD2 DNA inh
CC(C)(C(=O)O)c1ccc(C(O)CCCN2CCC(C(O)(c3ccccc3)c3ccccc3)CC2)cc1 (configuration not stated)	-0.4	0.3	-2.3	4.0	-2.1
CC(=O)O[C@H]1C(=O)[C@@]2(C)[C@H]([C@H](OC(=O)c3ccccc3)[C@]3(O)C[C@H](OC(=O)[C@H](O)C(NC(=O)c4ccccc4)c4ccccc4)C(C)=C1C3(C)C)[C@]1(OC(C)=O)CO[C@@H]1C[C@@H]2O (some centres not stated)	-1.3	-10.5	-21.3	-7.4	2.1
Cc1nc(-c2ccccc2)c(-c2ccccc2)[nH]1	-3.1	3.3	4.0	-3.1	0.0
CC(=O)c1nc2ccccc2n1S(=O)(=O)c1ccc(Cl)cc1	-1.2	6.3	8.2	3.5	-0.4
CCOc1ccccc1C1NC(=O)c2ccccc2N1 (configuration not stated)	-1.3	-4.8	-1.5	2.5	-3.1
N=C(N)c1ccc(OCCCCCOc2ccc(C(=N)N)cc2)cc1	-6.3	6.2	1.3	2.0	1.4
Cc1nc2ccc(S(=O)(=O)NCC(=O)NCCN3CCCCCC3)cc2s1	0.0	0.6	2.9	2.5	-4.5

Of the compounds above, these contain a carbonyl joined to an NH by a bond outside any ring:
SMILES	UHRF1 MBD2 ctr	mABHD4 FP	HTRA1 inh	SIAE primary	MBD2 DNA inh
NS(=O)(=O)c1ccc(NC(=O)Nc2ccccc2)cc1	-1.7	-2.9	-4.5	-8.2	3.5
CC(C)(C)c1cc(NC(=O)COC(=O)c2ccccc2O)n(-c2ccccc2)n1	-1.8	-8.7	-7.8	4.7	-1.4
CC(=O)Nc1cccc(-c2nnc(-c3ccc(C)cc3)o2)c1	2.0	-2.2	8.2	-7.1	-1.2
O=C(NCCN1CCC(n2c(=O)[nH]c3ccccc32)CC1)c1ccc2ccccc2c1	7.9	17.4	x	-8.2	-0.8
NS(=O)(=O)c1ccc(NC(=O)Nc2ccc(C(F)(F)F)cc2)cc1	3.0	-68.9	x	-98.4	-3.0
Cc1cnc(NC(=O)C2=C(O)c3ccccc3S(=O)(=O)N2C)s1	2.2&-0.2&2.3&-2.6	-3.9&5.8&-7.2&-3.0	0.6&-0.2&0.4&5.4	-2.2&3.7&1.9&-2.6	1.1&-3.8&2.2&-1.9
CC(=O)O[C@H]1C(=O)[C@@]2(C)[C@H]([C@H](OC(=O)c3ccccc3)[C@]3(O)C[C@H](OC(=O)[C@H](O)C(NC(=O)c4ccccc4)c4ccccc4)C(C)=C1C3(C)C)[C@]1(OC(C)=O)CO[C@@H]1C[C@@H]2O (some centres not stated)	-1.3	-10.5	-21.3	-7.4	2.1
Cc1nc2ccc(S(=O)(=O)NCC(=O)NCCN3CCCCCC3)cc2s1	0.0	0.6	2.9	2.5	-4.5
